Biofilm kill mix: clotrimazole potentiators killing C. albicans biofilm, primary screen, 4-compound mixtures. actives 0.02% (n = 120,000). inhibition, % at 7.6 µM. C. albicans biofilm persisters + clotrimazole, fluorescence viability; primary screen in compound mixtures of four per well;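 active means inhibition above 30.3% in the primary screen of four-compound pools, then above 30% when the compound was retested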;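 further: compounds exposed to preformed 24 h biofilms for 48 h; the number belongs to the whole pool; some results filed as inactive read as strong as hits; inactives centre near 12; 0% = biofilm with clotrimazole alone and 100% = kill control; retested singly at about 60 µM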
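Test system: C. albicans biofilms. Buffer or medium: RPMI/MOPS medium, pH 7.0. Timing: 48 h compound exposure at 37 °C. Technique: Alamar Blue fluorescence. Evaluation: percent inhibition of biofilm viability.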
Starred values were filed as active, the others as inactive. These rows are one share of the data (hit frequency here may not be typical).

SMILES | Biofilm kill mix
CCOC(=O)c1cccc(NC(=O)C2(S(=O)(=O)c3ccc(C)cc3)CC2)c1 | 12
Cc1cc(C(=O)CCl)c(C)n1-c1cccc([N+](=O)[O-])c1 | -6
Cc1ccc(-c2nc(CN3CCCCC3CCN3CCCC3=O)c(C)o2)o1 (centres undefined) | 17
Cc1ccc(-c2nnn(C/C(N)=N/O)n2)cc1 | 10
CCCC(=O)N(c1ccccc1)C1C=CS(=O)(=O)C1 (centres undefined) | 13
Fc1ccc(Nc2nc(-c3ccncc3)cs2)cc1 | 11
c1ccc2sc(NN=C3CCCC3)nc2c1 | 5
COc1cc(C(=O)NNC(=O)c2cc(C)[nH]n2)cc(OC)c1OC | -24
Cc1c(NC(=O)COC(=O)c2ccc(F)c(S(=O)(=O)N3CCOCC3)c2)c(=O)n(-c2ccccc2)n1C | 7
COc1ccc(N2CCN(C(=O)CNS(=O)(=O)c3ccc(C)c(C)c3)CC2)cc1 | -14
CN(C)CCN(C(=O)CCc1ccccc1)c1nc2c(F)cc(F)cc2s1 | 11
O=C(O)C1CCCCC1C(=O)N1CCCC1 (centres undefined) | 55
Cc1cc(SCC(=O)c2cccs2)n2nc(C)c(-c3ccccc3)c2n1 | 12
CC(=O)c1cc2c(s1)-c1cc(F)ccc1OC2 | 24
C=CCc1ccccc1OCCSc1nc2ccc([N+](=O)[O-])cc2s1 | 13
COc1ccc([N+](=O)[O-])cc1N1C(=O)c2cccc3cccc(c23)C1=O | 14
O=[N+]([O-])c1cccc(/C([O-])=C(/C(=S)Nc2ccccc2)[n+]2ccccc2)c1 | -7
CC(C)(C)[C@H]1C=C(C(=O)N2CCN(Cc3ccccc3)CC2)O[C@@H](OCCCCO)C1 | 4
CC(C)CC(c1nnnn1C1CCCC1)N1CCC(C(N)=O)CC1 (centres undefined) | 12
COc1ccc(NS(=O)(=O)c2cccc(N3CC(O)=C(c4ccccc4)C3=N)c2)cc1 | 17
O=C(O)c1ccc2c(c1)C(=O)N(c1ccc(/C=C/C(=O)c3ccccc3)cc1)C2=O | 16
CC(C)C(C(=O)OCC(=O)c1cccc([N+](=O)[O-])c1)N1C(=O)[C@@H]2[C@H]3CC[C@H](C3)[C@@H]2C1=O (some centres undefined) | 4
CC(C)Cc1nnc(NC(=O)CCc2c[nH]c3ccccc23)s1 | 6
CCOc1cc(/C=N/N2C(=O)NC3(CCCCC3)C2=O)cc(Br)c1O | 14
Cc1ccc(-n2cc(CNCCCN3CCCC3=O)c(-c3ccc(F)cc3)n2)cc1 | 3
Cc1ccc(-c2cc(O)cc3sc(=O)oc23)cc1C | 22
O=C1CCCN1S(=O)(=O)c1ccccc1 | 11
CC1CCC(NC(=O)C(NC(=O)c2ccccc2)C(C)C)CC1 (centres undefined) | 7
O=C(NC1CCCC1)C(c1ccccn1)N(C(=O)c1csnn1)C1CCCCC1 (centres undefined) | -3
O=c1n(-c2ccc(Br)cc2)cnn1-c1ncccc1[N+](=O)[O-] | 20
CCOC(=O)c1[nH]c(C)c(/C(O)=C2\C(=O)C(=O)N(CCN3CCOCC3)C2c2ccco2)c1C (centres undefined) | 14
Cc1cccc(N(CC(=O)O)CC(=O)O)c1 | 20
C/C(=N\NC(=O)CN(c1ccc(Oc2ccccc2)cc1)S(C)(=O)=O)C(C)(C)C | 11
CCOC(=O)C1CCCN(c2c(N3CCN(c4cccc(Cl)c4)CC3)c(=O)c2=O)C1 (centres undefined) | 9
CCOC(=O)CC(=O)CSc1nc2ccc(OC)cc2cc1C | 15
CCCCC(CC)Cn1c(O)c(/C=C2\C=NN=C2c2ccccc2)sc1=S (centres undefined) | 15
Cc1ccc(S(=O)(=O)c2nc(S(C)(=O)=O)sc2NCc2ccc3c(c2)OCO3)cc1 | -9
Cc1c(/C(O)=C2\C(=O)C(=O)N(CCN(C)C)C2c2ccccc2)cnn1-c1ccccc1 (centres undefined) | 21
C=CCNC(=S)NNC(=O)c1ccco1 | 9
CC(=O)Nc1ccc(/C=N/N2C(C)CCCC2C)cc1 (centres undefined) | 12
Cc1ccccc1-n1c(=S)[nH]c2nc3c(cc2c1=O)COC(C)(C)C3 | 12
Cc1ccccc1NNC(N)=S | 20
CN(C)c1nc(NCc2ccccc2)nc(N/N=C/c2cccc(Br)c2)n1 | -4
COc1ccccc1C(c1nnnn1CC1CCCO1)N1CCN(c2ccccc2)CC1 (centres undefined) | 29
CCN(CC)C(=O)Cn1c(=O)n(CCCCCC(=O)Nc2ccccc2)c(=O)c2sccc21 | 24
COc1ccccc1NC(=O)CSc1nc(N)c(-c2ccccc2)c(=O)[nH]1 | 8
CC12CN3CC(C)(CN(C1)C3c1ccc(Cl)cc1)C2 (centres undefined) | 17
Cc1nc2cc(C(=O)NCc3cccnc3)ccc2n1-c1ccc(F)cc1F | 9
O=C(COC(=O)c1ccc(S(=O)(=O)N2CCCC2)cc1)NCc1ccco1 | 14
CC(=O)C(Sc1ccc2nnc(-c3cccnc3)n2n1)C(C)=O | 16
COc1ccccc1N(CC(=O)NC1CCCCC1)S(=O)(=O)c1cccs1 | 12
CC(C)n1nnnc1SCC(=O)Nc1ccc2c(c1)OCO2 | 10
Cc1ccc(-n2c([S-])c(C(=O)Nc3ccc(OC(F)F)cc3)[n+]3ccc(C(=O)NCCO)cc23)cc1C | 12
Cc1cccc(NC(=O)CN2C(=O)N/C(=C/c3ccc(C)s3)C2=O)c1 | 16
CC(=O)N1CCC(N2CCN(Cc3ccc(C)cc3)C(CCO)C2)CC1 (centres undefined) | 6
O=c1[nH]c(S)c(/C=C2\C=Nc3ccccc32)s1 | 11
Cc1cc(C)cc(OCc2ccc(C(=O)NC3CCOC3=O)o2)c1 (centres undefined) | 13
COc1cc(CNCCNC(=O)c2cccs2)cc(OC)c1OC | 23
Brc1ccccc1-n1nnc(-c2ccnc3ccccc23)n1 | 18
COc1ccc(OCc2cc(C(=O)O)c(C)o2)cc1 | 22

Four entries from above, as a markdown table.
| Compound | Biofilm kill mix |
| --- | --- |
| Cc1ccccc1-n1c(=S)[nH]c2nc3c(cc2c1=O)COC(C)(C)C3 | 12 |
| Cc1ccccc1NNC(N)=S | 20 |
| CN(C)c1nc(NCc2ccccc2)nc(N/N=C/c2cccc(Br)c2)n1 | -4 |
| COc1ccccc1C(c1nnnn1CC1CCCO1)N1CCN(c2ccccc2)CC1 (centres undefined) | 29 |

(continued)
SMILES | Biofilm kill mix
CN(Cc1cnccn1)Cc1nc(Cc2ccccc2Cl)no1 | 15
CCOC(=O)C1(CCc2ccccc2)CCN(C(=O)c2cccc(C)n2)CC1 | 7
Cc1cc2cc(CCNC(=O)c3ccc(C)c([N+](=O)[O-])c3)c(=O)[nH]c2cc1C | 13
CNC(=S)N(CCc1c(C)[nH]c2ccc(Cl)cc12)Cc1cc(OC)c(OC)c(OC)c1 | -1
O=S(=O)(Nc1ncccn1)c1ccc(NC(=S)Nc2ccccc2Cl)cc1 | 18
Cc1cc(C)c2c(N)c(C(=O)c3ccccc3)sc2n1 | 9
O=C(O)C1=NOC(CNC(=O)c2ccccc2Cl)C1 (centres undefined) | 0
O=C(COC(=O)/C=C/c1ccccc1[N+](=O)[O-])NCC(F)(F)F | 10
C=CCOc1ccc(Br)cc1/C=C1/SC(=Nc2ccc(C(=O)O)cc2)NC1=O | 11
CCN(CCCc1ccccc1)CCCc1ccccc1 | 8
Cc1c(Cl)cccc1NC(=O)NCc1ccncc1 | 11
CCN(C(=O)COC(=O)/C=C/c1cnc2ccccc2n1)c1ccccc1 | 9
CCN(C(=O)CSc1nnc(-c2ccncc2)n1Cc1ccccc1)C1CCS(=O)(=O)C1 (centres undefined) | 26
Cc1ccc[n+](C(C)C(=O)c2ccc(-c3ccccc3)cc2)c1 (centres undefined) | 3
CC(=O)N1N=C(c2cccs2)CC1c1cccs1 (centres undefined) | 13
COC(OC)c1ccnc(-c2ccc(OC(=O)c3cccs3)cc2)n1 | 10
O=C(c1ccc(S(=O)(=O)c2ccccc2Cl)c([N+](=O)[O-])c1)N1CCCCCC1 | 21
CC1CCN(CCCNC(=O)c2ccc3c(Cl)c4c(nc3c2)CCCC4)CC1 | 21
COc1cc(NC(=S)NC(C)(C)C)c(OC)cc1Cl | 7
Cc1ccc(S(=O)(=O)NC(=O)c2cc(C)n(-c3ccccc3)c2C)cc1 | -4

3 records picked at random from the list so far, as already listed:
SMILES | Biofilm kill mix
CNC(=S)N(CCc1c(C)[nH]c2ccc(Cl)cc12)Cc1cc(OC)c(OC)c(OC)c1 | -1
Cc1ccc(S(=O)(=O)NC(=O)c2cc(C)n(-c3ccccc3)c2C)cc1 | -4
CCN(C(=O)COC(=O)/C=C/c1cnc2ccccc2n1)c1ccccc1 | 9

Continuation.
SMILES | Biofilm kill mix
COc1cc(N/N=C/c2ccc(N(C)C)cc2)ncn1 | -1
Nc1nnc(-c2ccc(Cl)cc2)o1 | 24
N#Cc1ccccc1N=Cc1ccc(Br)cc1 | 10
CCc1ccccc1OCC(=O)OCC(=O)N1CC(=O)Nc2ccccc21 | 8
CCCCNC(=S)N/N=C/C1=CCC2CC1C2(C)C (centres undefined) | 6
COC(=O)Cc1[nH]n(-c2nc3ccccc3s2)c(=O)c1C(C)=Nc1ccc(Cl)cc1 | 18
Cc1ccc(NC(=O)CC(NCC2CCCO2)C(=O)O)cc1C (centres undefined) | 17
O=C(CSc1nnc2ccccn12)NNC(=O)c1ccc(Cl)cc1 | 30
CN(C)/C=N/c1ncc(C(=O)OC(C)(C)C)s1 | -4
CC(C)NC(=O)c1nn2c(C(F)(F)F)cc(-c3ccco3)nc2c1Cl | 20
COc1ccccc1CN=C1NC(=O)C(CC(=O)Nc2ccc(C(C)=O)cc2)S1 (centres undefined) | 20
O=C(Oc1ccc[nH]c1=O)c1cccc(Cl)c1 | 26
O=C(CSc1nnc2ccccn12)Nc1ccc(S(=O)(=O)N2CCOCC2)cc1 | 9
CC(C)c1csc(CN2CCC(CO)(Cc3cccc(F)c3)CC2)n1 | 14
Cc1ccc(C)c(OCCCC(=O)N2CCOCC2)c1 | 7
CCn1ncc(Br)c1C(=O)Nc1cc(C)cc(C)c1 | 3
Cc1cc2nnc(SC(C)C)n2c2ccccc12 | 7
N#CC(C(=O)c1ccccc1Cl)=C1SCCCS1 | 5
Cc1cccc(/C=N/NC(=O)NC2CCCCC2)c1 | 19
O=C(Cn1nnc2ccccc21)N/N=C\c1cccs1 | 8

As a working copy, 3 of the compounds above.
SMILES | Biofilm kill mix
N#CC(C(=O)c1ccccc1Cl)=C1SCCCS1 | 5
Cc1cccc(/C=N/NC(=O)NC2CCCCC2)c1 | 19
O=C(Cn1nnc2ccccc21)N/N=C\c1cccs1 | 8

Next section
SMILES | Biofilm kill mix
Cc1ccc(Nc2nnc(SCC(=O)N(C)C3CCS(=O)(=O)C3)s2)cc1 (centres undefined) | 20
O=C(O)CCN1C(=O)/C(=C\c2ccncc2)SC1=S | 13
Nc1c(C(=O)Nc2ccccc2)sc2ncc([N+](=O)[O-])cc12 | 18
O=C(Nc1ccc(-c2nc3ccccc3[nH]2)cc1)c1ccccc1NS(=O)(=O)c1ccc(F)cc1 | 18
COc1ccc(OC)c2c1sc(=NC(=O)C1CCCCC1)n2C | 30
CCCn1c(=S)[nH]c2cc(C(=O)N3CCc4ccccc4C3)ccc2c1=O | 27
CC1(C)CC(=O)C2=C(C1)N1C(=C(C#N)C2c2ccc(Cl)cc2)N=C(N)c2ccccc21 (centres undefined) | 6
CCN1CCN(C(=S)Nc2ccc(C(C)=O)cc2)CC1 | 1
CCn1nnnc1SCC(=O)N1c2ccccc2Sc2ccccc21 | 2
CCc1ccc(NC(=O)Nc2ccncc2)cc1 | 19
CCCn1nnnc1NC(=O)c1cc(Br)ccc1OC | 11
Cc1cc(N/N=C/c2ccc(Cl)cc2Cl)nc(NCc2ccccc2)n1 | 12
Cc1ccc(NC(=O)C2CC(=O)Nc3nncn32)cc1 (centres undefined) | 20
Oc1ccccc1/C=N/NC(=S)NC1CC2CCC1C2 (centres undefined) | 27
O=C(NCc1cccnc1)NC1CC(=O)N(c2ccc3c(c2)OCCO3)C1 (centres undefined) | 0
CCCCNC(=O)C1CCN(Cc2ccc(OCc3ccccc3)cc2)CC1 | 15
O=c1[nH]cc(C(F)(F)F)cc1NS(=O)(=O)c1ccc([N+](=O)[O-])cc1 | 7
CN(c1ccc(F)cc1)S(=O)(=O)c1ccc(Cl)c(C(=O)Nc2ccc3c(c2)CCC3)c1 | 3
COc1cc2c(cc1OC)CN(c1nc(CN3CCCCC3)nc3sc4c(c13)CCCC4)CC2 | 8
Cc1nc(SCC(=O)Nc2c(C)n(C)n(-c3ccccc3)c2=O)n[nH]1 | 20
COc1cc(/C=C2\SC(=S)N(c3cccnc3)C2=O)ccc1O | 16
O=C(O)CCCN1C(=O)/C(=C\c2ccc(-c3nc4ccccc4s3)o2)SC1=S | 8
CCN(CC)S(=O)(=O)c1ccc(C(=O)Nc2cc3oc4ccccc4c3cc2OC)cc1 | 14
Cc1c(C(=O)OC/C(O)=C(\C#N)c2nc3ccccc3[nH]2)oc2ccccc12 | -2
O=C(O)C1CCCNC1 (centres undefined) | 16
CCOc1ccc(N2CC(C(=O)NCc3ccccc3)CC2=O)cc1 (centres undefined) | 22
N#Cc1ccc(COC(=O)c2ccc(N3CCCC3)c([N+](=O)[O-])c2)cc1 | 9
COc1ccc(C(=O)NC(=S)Nc2ccccc2N2CCOCC2)cc1[N+](=O)[O-] | 12
CCOC(=O)N1CCC(N(CCOC)C(=S)Nc2cccc(SC)c2)CC1 | -1
CSCC[C@H](NC(=O)C1=NN(c2c(F)c(F)cc(F)c2F)C(=O)CC1)c1nc2ccccc2[nH]1 | 15
Cc1nn(C)cc1/C=N\NC(=O)c1ccc(Cn2cc(Cl)cn2)cc1 | 6
N#Cc1ccsc1NC(=O)c1ccc(Cl)c([N+](=O)[O-])c1 | -1
Cc1ccc([N+](=O)[O-])c(C)[n+]1C | 20
Nc1ccc(Sc2nc3ccccc3[nH]2)cc1 | 16
CSc1ccc(/C=C/C(=O)OCC(=O)NC(C)C)cc1 | 6

Compound activity deposited in PubChem by PCMD.
